Source: PubChem
NOMO-1 viab = STK33 inhibitor candidate reducing NOMO-1 cell viability; NOMO-1 AML viability, CellTiter-Glo luminescence, 72 h; inhibition, % (test concentration not listed); 7.5% of 37,000 active; AID 2330;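 active means most replicates above 80%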;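 further: wells of about 30 µL received 25 nL stock; 0% = median of vehicle wells and 100% = reference inhibitor level; the first replicate is given; inactives centre near 10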
Starred values were filed as active, the others as inactive. The list is partial. The share of hits here may be higher or lower than overall.

mol | NOMO-1 viab
COCc1nc2ccccc2n1CCOc1ccc(Cl)cc1Cl | 33
CC(=O)NCCc1ccc(O)cc1 | -5
C[C@@H]1CN([C@@H](C)CO)C(=O)c2cccc(NC(=O)C3CCOCC3)c2O[C@H]1CN(C)C | 7
Cc1ccc(C(=O)C2C(=O)C(=O)N(Cc3cccnc3)C2c2ccc(Cl)c(Cl)c2)o1 (stereo unspecified) | -1
C[C@H](CO)N1C[C@H](C)[C@@H](CN(C)S(C)(=O)=O)Oc2ccc(NC(=O)c3ccncc3)cc2C1=O | -4
CN1CCN(NC(=O)CCN2C(=O)/C(=C\c3ccccc3)SC2=S)CC1 | 25
C[C@H]1CN([C@@H](C)CO)C(=O)c2cc(NC(=O)C3CC3)ccc2O[C@@H]1CN(C)Cc1ccc(C(F)(F)F)cc1 | -3
CS(=O)(=O)N(CC(=O)Nc1c(F)cccc1F)C1CCCCC1 | 19
Cc1c(NC(=O)CSc2nnnn2-c2ccc(O)cc2)c(=O)n(-c2ccccc2)n1C | 10
Cc1cc(C)cc(NC(=O)COc2ccc3cc(-c4ccccc4)c(=O)oc3c2)c1 | 66

Later entries.
mol | NOMO-1 viab
O=C(CCN1C(=O)c2cccc([N+](=O)[O-])c2C1=O)Nc1ccccc1C(F)(F)F | 4
O=C(N1CC(Oc2ccc(Cl)cc2)C1)N1CC(Oc2ccc(Cl)cc2)C1 | 30
Cc1cccc(C)c1NC(=O)C1CC=CCC1C(=O)O (stereo unspecified) | 2
C[C@H](CO)N1C[C@H](C)[C@H](CN(C)CC2CCCCC2)Oc2ccc(NS(C)(=O)=O)cc2CC1=O | 7
Cc1noc(C)c1NC(=O)N(C)C[C@H]1Oc2ccc(NC(=O)CCCCCC(=O)Nc3ccccc3N)cc2C(=O)N([C@H](C)CO)C[C@@H]1C | 37
CC1=CC(C)(C)N(C(C)C)C(=O)N1c1ccc(C)cc1 | -2
C[C@H]1CN([C@@H](C)CO)C(=O)c2cc(NC(=O)CCCN(C)C)ccc2O[C@H]1CN(C)S(=O)(=O)c1ccccc1 | -17
Cc1ccc(-c2nc3ccccc3[nH]2)cc1NC(=O)COc1cccc([N+](=O)[O-])c1 | 19
O=C(Nc1ccc(I)cc1C(=O)NCc1ccco1)c1ccco1 | 33
C[C@H](CO)N1C[C@H](C)[C@H](CN(C)CC2CCCCC2)Oc2ccc(NC(=O)Cc3ccccc3)cc2C1=O | 0

7 records drawn at random from those above:
mol | NOMO-1 viab
O=C(CCN1C(=O)c2cccc([N+](=O)[O-])c2C1=O)Nc1ccccc1C(F)(F)F | 4
Cc1ccc(-c2nc3ccccc3[nH]2)cc1NC(=O)COc1cccc([N+](=O)[O-])c1 | 19
O=C(N1CC(Oc2ccc(Cl)cc2)C1)N1CC(Oc2ccc(Cl)cc2)C1 | 30
CC1=CC(C)(C)N(C(C)C)C(=O)N1c1ccc(C)cc1 | -2
Cc1noc(C)c1NC(=O)N(C)C[C@H]1Oc2ccc(NC(=O)CCCCCC(=O)Nc3ccccc3N)cc2C(=O)N([C@H](C)CO)C[C@@H]1C | 37
C[C@H](CO)N1C[C@H](C)[C@H](CN(C)CC2CCCCC2)Oc2ccc(NS(C)(=O)=O)cc2CC1=O | 7
C[C@H]1CN([C@@H](C)CO)C(=O)c2cc(NC(=O)CCCN(C)C)ccc2O[C@H]1CN(C)S(=O)(=O)c1ccccc1 | -17

Following part
mol | NOMO-1 viab
CC(=O)Nc1ccc(NC(=O)CN(C)S(=O)(=O)c2ccc(Cl)cc2)cc1 | -7
COc1ccc(NC(=O)Nc2ccc3c(c2)CC(=O)N([C@@H](C)CO)C[C@H](C)[C@@H](CN(C)S(=O)(=O)c2c(C)noc2C)O3)cc1 | 12
NS(=O)(=O)c1cc(C(=O)O)cc(N2CCCC2)c1Oc1ccccc1 | -8
CCOc1ccc(C)cc1S(=O)(=O)Nc1ccc(Cl)cn1 | -10
COc1ccc(S(=O)(=O)N(C)C[C@@H]2Oc3ccc(NC(=O)c4ccncc4)cc3CC(=O)N([C@H](C)CO)C[C@@H]2C)cc1 | 7
C[C@H]1CN([C@@H](C)CO)C(=O)c2cccc(NC(=O)C3CC3)c2O[C@H]1CN(C)Cc1ccc(Oc2ccccc2)cc1 | -2
COc1ccc(NC(=O)Nc2nn(Cc3ccc(Cl)cc3Cl)cc2Br)cc1OC | 40
CCCc1c(O)nc(SC2CC(=O)N(c3ccc(Oc4ccccc4)cc3)C2=O)[nH]c1=O (stereo unspecified) | 5
CC(=O)OC(CCCCCCCCCC(C)O)Cc1cc(O)cc(O)c1 (stereo unspecified) | 27
CC1OC(O[C@H]2[C@@H](O)C[C@@]3(C)C([C@H](O)C[C@]4(C)C3CC=C3[C@@H]5CC(C)(C)CC[C@]5(C(=O)OC5OC(C)C(OC6OCC(OC7OCC(O)C(OC8OCC(O)C(O)C8O)C7O)C(O)C6O)C(O)C5O)CC[C@]34C)[C@]2(C)CO)C(O)C(OC2OC(CO)C(O)C(O)C2O)C1O (stereo partly specified) | 29

The list goes on.
mol | NOMO-1 viab
N#CCc1ccc(NC(=O)COc2ccc([N+](=O)[O-])cc2)cc1 | -15
Cc1ccc(S(=O)(=O)N(C)C[C@@H]2Oc3ccc(NS(=O)(=O)c4ccc(Cl)cc4)cc3C(=O)N([C@@H](C)CO)C[C@H]2C)cc1 | 29
CC(C)(C)c1ccc(/C(N)=N/O)cc1 | 22
Cc1ccc(S(=O)(=O)N(C)C[C@H]2Oc3c(NC(=O)c4ccncc4)cccc3C(=O)N([C@@H](C)CO)C[C@@H]2C)cc1 | 23
C[C@@H]1CN([C@H](C)CO)C(=O)c2cccc(N(C)C)c2O[C@@H]1CN(C)Cc1ccc(Oc2ccccc2)cc1 | 9
Cc1ccc(C)c(OC(=O)CS(=O)c2ccccc2[N+](=O)[O-])c1 (stereo unspecified) | 120*
CN(C)CCCNc1ncnc(N)c1[N+](=O)[O-] | -5
COc1ccc(NC(=O)C(C)NS(=O)(=O)c2ccc(F)cc2)cc1Cl (stereo unspecified) | 9
c1ccc(COc2ccc(NCCc3ccncc3)cc2)cc1 | 49
O=C(Nc1sc2c(c1C(=O)NCc1ccco1)CCCC2)c1ccc([N+](=O)[O-])cc1 | 15

(more compounds)
mol | NOMO-1 viab
COc1ccc(NC(=O)Nc2ccc3c(c2)C(=O)N([C@H](C)CO)C[C@@H](C)[C@@H](CN(C)S(=O)(=O)c2ccccc2)O3)cc1 | 10
COC(=O)Nc1nnc(CC(=O)Nc2ccccc2C)s1 | 14
O=C(CN1CCCCC1)Nc1sc2c(c1C(=O)Nc1ccc(Br)cc1)CCC2 | 14
Cc1sc2ncnc(SCC(=O)c3cc(Cl)sc3Cl)c2c1C | 48
O=C(CSc1nnc(-c2cccnc2)n1-c1ccccc1)NCc1ccccc1 | -11
C[C@@H]1CN([C@H](C)CO)C(=O)c2cc(NS(=O)(=O)c3ccc(F)cc3)ccc2O[C@@H]1CN(C)CC1CC1 | 1
Cc1ccc(S(=O)(=O)Nc2cccc3c2O[C@H](CN(C)CC2CC2)[C@@H](C)CN([C@@H](C)CO)C3=O)cc1 | 21
C[C@@H]1CN([C@@H](C)CO)C(=O)c2cccc(NC(=O)C3CCCCC3)c2O[C@H]1CN(C)C(=O)Nc1ccc2c(c1)OCO2 | -3
COc1ccc(NC(=O)N(C)C[C@H]2Oc3ccc(NC(=O)Nc4ccccc4)cc3C(=O)N([C@H](C)CO)C[C@H]2C)cc1 | 42
C[C@H]1CN([C@@H](C)CO)C(=O)c2cccc(NS(=O)(=O)c3ccc(F)cc3)c2O[C@H]1CN(C)Cc1ccccc1 | 6

Continuation:
mol | NOMO-1 viab
C=CC[n+]1ccccc1/C=N/O | 31
C[C@@H]1CCCCO[C@H](CN(C)Cc2ccc3c(c2)OCO3)[C@@H](C)CN([C@H](C)CO)C(=O)c2cc(NC(=O)CCC(F)(F)F)ccc2O1 | 66
Cc1cc(OCC(=O)NCc2ccco2)cc(C)c1Br | 10
C[C@H]1CN([C@@H](C)CO)C(=O)c2cccc(NC(=O)c3cnccn3)c2O[C@@H]1CN(C)S(C)(=O)=O | 4
O=C(NC1CCCCC1)NC12CC3CC(CC(C3)C1)C2 | 16
COc1ccc(S(=O)(=O)N(C)C[C@@H]2OCCCC[C@@H](C)Oc3ccc(NC(=O)Nc4ccccc4)cc3C(=O)N([C@H](C)CO)C[C@@H]2C)cc1 | 4
COc1ccc(S(=O)(=O)N(C)C[C@H]2Oc3ccc(NC(=O)Nc4ccccc4)cc3C(=O)N([C@H](C)CO)C[C@H]2C)cc1 | 6
Cc1ccc(S(=O)(=O)N(C)CC(=O)Nc2ccc(Nc3ccccc3)cc2)cc1 | 59
C[C@@H]1CCCCO[C@@H](CN(C)C(=O)Nc2ccc3c(c2)OCO3)[C@@H](C)CN([C@H](C)CO)C(=O)c2cc(NS(=O)(=O)c3cn(C)cn3)ccc2O1 | 16
COc1ccc(NC(=O)Nc2ccc3c(c2)CC(=O)N([C@H](C)CO)C[C@H](C)[C@H](CN(C)CC2CCCCC2)O3)cc1 | 61

(further entries)
mol | NOMO-1 viab
C[C@@H]1O[C@@H](O[C@@H]2[C@@H](O)[C@H](OCCc3ccc(O)c(O)c3)O[C@H](CO[C@@H]3OC[C@](O)(CO)[C@H]3O)[C@H]2OC(=O)/C=C/c2ccc(O)c(O)c2)[C@H](O[C@@H]2OC[C@H](O)[C@H](O)[C@H]2O)[C@H](O)[C@H]1O | 25
COc1ccc([N+](=O)[O-])cc1NC(=O)CN(c1ccccc1Br)S(C)(=O)=O | -25
CNC[C@@H]1Oc2ccc(NC(=O)CCN3CCOCC3)cc2CC(=O)N([C@H](C)CO)C[C@H]1C | -2
Cc1ccc(C(C)C)c(OCC(=O)Nc2cc(-c3nc4ccccc4o3)ccc2C)c1 | -12
C[C@@H]1CN([C@H](C)CO)C(=O)c2cccc(NC(=O)c3ccncc3)c2O[C@@H]1CN(C)C(=O)NC1CCCCC1 | -9
COc1ccc(-n2nc3cc(C)c(NC(=O)COc4ccccc4)cc3n2)cc1 | 8
C[C@H](CO)N1C[C@H](C)[C@@H](CN(C)S(=O)(=O)c2ccccc2)Oc2ccc(NC(=O)CCCN(C)C)cc2C1=O | -16
CNC[C@H]1Oc2c(NC(=O)Nc3c(C)noc3C)cccc2C(=O)N([C@@H](C)CO)C[C@@H]1C | 11
CC(C)NC(=O)Nc1cccc2c1O[C@H](CN(C)C(=O)Nc1ccc(C(F)(F)F)cc1)[C@H](C)CN([C@H](C)CO)C2=O | 25
C=C(C)C(=O)O[C@H]1CC(=C)C2C[C@H](O)[C@](O)(CO)C2[C@H]2OC(=O)C(=C)[C@H]12 (stereo partly specified) | 119*

Next part
mol | NOMO-1 viab
Cc1cc(C)c2nc(-c3cccnc3)cc(C(=O)NC(C)c3cnn(C)c3C)c2c1 (stereo unspecified) | 16
C[C@H]1CN([C@@H](C)CO)C(=O)c2cc(NS(C)(=O)=O)ccc2O[C@H]1CN(C)S(=O)(=O)c1cn(C)cn1 | 3
O=C(O)c1ccccc1C(=O)c1ccc(-c2ccccc2)cc1 | -7
COc1ccc(S(=O)(=O)Nc2ccc3c(c2)C(=O)N([C@H](C)CO)C[C@@H](C)[C@@H](CN(C)Cc2ccc(C(=O)O)cc2)O3)cc1 | 7
Cc1ccc(-n2c(SCC(=O)N3CCOCC3)nnc2-c2ccncc2)cc1 | -20
C[C@@H]1CN([C@@H](C)CO)C(=O)Cc2cc(NC(=O)C3CCCCC3)ccc2O[C@@H]1CN(C)C(=O)Nc1ccc(F)cc1 | -4
COc1ccc(-n2c(SCC(=O)Nc3ccc(C)cc3)nc3sc4c(c3c2=O)CCCC4)cc1 | 24
Clc1ccc(-c2cnc3n2CCC3)cc1Cl | 112*
COc1ccc(NC(=O)Nc2cccc3c2O[C@@H](CN(C)C(=O)NC(C)C)[C@H](C)CN([C@H](C)CO)C3=O)cc1 | -17
C[C@H]1CN([C@@H](C)CO)C(=O)c2cccc(NS(=O)(=O)c3ccccc3)c2O[C@@H]1CN(C)Cc1ccncc1 | 17

Other entries
mol | NOMO-1 viab
C[C@H](CO)N1C[C@H](C)[C@H](CN(C)Cc2ccc(C(F)(F)F)cc2)Oc2ccc(NC(=O)Nc3ccc(C(F)(F)F)cc3)cc2CC1=O | 129*
C[C@H]1CN([C@@H](C)CO)C(=O)Cc2cc(NS(=O)(=O)c3ccc(F)cc3)ccc2O[C@H]1CN(C)S(=O)(=O)c1cn(C)cn1 | 13
Cc1noc(C)c1NC(=O)Nc1ccc2c(c1)C(=O)N([C@H](C)CO)C[C@H](C)[C@H](CN(C)CC1CC1)OCCCC[C@@H](C)O2 | -17
CNC[C@H]1Oc2ccc(NS(=O)(=O)c3cn(C)cn3)cc2CC(=O)N([C@@H](C)CO)C[C@@H]1C | -2
C[C@H](CO)N1C[C@H](C)[C@@H](CN(C)C(=O)Nc2ccc3c(c2)OCO3)Oc2c(NC(=O)c3ccncc3)cccc2C1=O | 13
CC1(C)O[C@@H]2[C@H](O1)[C@@H](CO)O[C@H]2n1cnc2c(N)ncnc21 | -11
C[C@@H]1CN([C@@H](C)CO)C(=O)c2cccc(NC(=O)c3nc4ccccc4s3)c2O[C@@H]1CN(C)S(=O)(=O)c1ccc(Cl)cc1 | 113*
COc1ccccc1CN1CCN(Cc2cccnc2)CC1 | -7
C[C@@H]1CCCCO[C@H](CN(C)C(=O)CCC(F)(F)F)[C@@H](C)CN([C@H](C)CO)C(=O)c2cc(NS(=O)(=O)c3cccs3)ccc2O1 | 7
CCOC(=O)c1c(-c2ccc(C)cc2)csc1NC(=O)C1COc2ccccc2O1 (stereo unspecified) | 12
C[C@@H]1CN([C@H](C)CO)C(=O)Cc2cc(NC(=O)Nc3ccc(F)cc3)ccc2O[C@@H]1CN(C)C(=O)Nc1ccc(C(F)(F)F)cc1 | 1
CCn1c(SCC(=O)Nc2ccc(C)cc2)nnc1-c1ccc(N)cc1 | 44
C=C1C(=O)O[C@@H]2/C=C(/CO)CC/C=C(/C)C[C@H](OC(=O)C(C)CO)[C@@H]12 (stereo partly specified) | 118*
